# UUG fidelity = modulators of yeast start codon fidelity, primary screen, whole organism, S. cerevisiae, single point, plate reader. S. cerevisiae UUG-firefly luciferase reporter, luminescence/redox ratio. activity score, % at 18.7 µM. 350,000 tested, 0.13% active;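 active means replicate mean at a twofold rise or more, about +100% in these data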;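 further: firefly luciferase made from a UUG start codon reports start codon fidelity; reporter light over untreated wells divided by growth signal over untreated wells; some hits fall short of that in this replicate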
# eIF4H FP inh = human eIF4H binding inhibitors, primary screen, translation initiation inhibitor project, biochemical, uHTS, fluorescence polarization. Eukaryotic translation initiation factor 4H (Homo sapiens), Q15056. eIF4H fluorescence polarization binding assay. inhibition, % at 35 µM. 290,000 tested, 0.94% active. AID 2012, 2009;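 active means 50% or more with normal probe brightness, or confirmed in later tests; inconclusive means above 50% with abnormal brightness, or retests that disagree; inactive means below 50% or failed in later tests; about a fifth of its hits are not listed in these tables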;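 further: calls also rest on retests at 20 µM and on dose response follow-up; 0% = protein and probe with vehicle and 100% = probe without protein; strong numbers were not always called active; many hits fall short of the cut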
# Env fusion inh = inhibitors of HIV-1 Env-driven cell-cell fusion, primary screen, HeLa-JRFL effector, CEM21 target cells, luciferase; AID 651610, 2012; inhibition, % at 12.3 µM; 360,000 tested, 1.1% active;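 active means mean replicate inhibition score of at least 50 and every replicate individually at or above 50; inconclusive means only one of the two criteria met; inactive means mean below 50 and not all replicates reaching 50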;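 further: 0% = plate neutral controls and 100% = maraviroc near 300 nM; one replicate is shown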
# PABP polyA inh = PABP poly(A) RNA binding inhibitors, primary screen, biochemical, fluorescence polarization, uHTS; Polyadenylate-binding protein 1 (Homo sapiens), P11940; inhibition, % at 35 µM; 290,000 tested, 1% active;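 active means 50% or more with normal probe brightness, or confirmed in later tests; inconclusive means above 50% with abnormal brightness, or retests that disagree; inactive means below 50% or failed in later tests; about a fifth of its hits are not listed in these tables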;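 further: calls also rest on retests at 20 µM and on dose response follow-up; controls were probe without protein and protein plus probe with vehicle; some compounds called inactive have numbers as strong as hits; many hits fall short of the cut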
# CSC inhib = cancer stem cell viability inhibitors, primary screen, luminescence; cancer stem cell-like cells viability; 300,000 tested, 1.1% active; inhibition, % at 7.5 µM; AID 2717, 2010;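 active means mean at 75% or more and at least half the replicates too; inconclusive means mean and replicates disagree; tested in HMLE shEcad cells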;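 further: 0% = median of negative and 100% = median of positive control wells; the first replicate is given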
# Rce1 inh = yeast Rce1p protease inhibitors, primary screen, biochemical, fluorescence, cell-free homogeneous | 290,000 tested, 0.27% active | yeast membranes, quenched prenylated peptide cleavage fluorescence | calls only | CAAX prenyl protease 2 (Saccharomyces cerevisiae (strain ATCC 204508 / S288c)), Q03530 | AID 2563, 2010;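 active means fall in fluorescence gain of 50% or more versus controls, with final raw signal at or below 3038400; inconclusive means same 50% fall but final raw signal above 3038400; inactive means fall in fluorescence gain under 50%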;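 further: plate controls were neutral control wells for no effect and wells lacking membranes for full effect; tested at 10 µM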
# Target sequence (Q03530 whole entry, looked up): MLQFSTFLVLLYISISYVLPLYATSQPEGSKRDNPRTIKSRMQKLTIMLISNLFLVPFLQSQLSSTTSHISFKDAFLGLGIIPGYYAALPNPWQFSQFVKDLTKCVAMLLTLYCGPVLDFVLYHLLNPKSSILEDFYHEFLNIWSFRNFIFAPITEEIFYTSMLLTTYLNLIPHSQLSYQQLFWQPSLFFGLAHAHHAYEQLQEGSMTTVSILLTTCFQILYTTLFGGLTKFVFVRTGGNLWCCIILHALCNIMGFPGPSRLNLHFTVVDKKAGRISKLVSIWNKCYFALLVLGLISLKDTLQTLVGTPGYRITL
# MT1-MMP act inh = blockers of MT1-MMP proenzyme processing, primary screen, HT1080 RFP-PRO-GFP cells, GFP/RFP fluorescence | Matrix metalloproteinase-14 (Homo sapiens), P50281 | GFP/RFP ratio fluorescence, overnight; percent of plate control window, DMSO zero | GFP/RFP ratio change, % at 20 µM | 360,000 tested, 0.061% active;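 active means GFP/RFP ratio change of at least 30% with cell ATP level not reduced by more than half and red fluorescence within 50% of control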; further: strong numbers were not always called active
#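 Material – HT1080 RFP-PRO-GFP cells · Control set – DMSO wells and RFP-L50D-GFP cells · Incubation – overnight cell settling, then overnight compound exposure, 37 °C, 5% CO2 · Compound dosing – single-point 20 µM compound, 1% DMSO · Read-out – GFP/RFP fluorescence ratio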
# MT1-MMP act inh RFP = further read-out of MT1-MMP act inh, marked with its call; RFP signal change, %; measured here: RFP expression control read;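 0 = vehicle wells; hits needed this value within 50% of zero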
# * hit, by the source's call; i = inactive; ? = inconclusive; . = no result given; & = joins results of further samples.
SMILES,UUG fidelity,eIF4H FP inh,Env fusion inh,PABP polyA inh,CSC inhib,Rce1 inh,MT1-MMP act inh,MT1-MMP act inh RFP
CCOc1cc(-c2c(C#N)c(N)nc3c2CCCC3C)ccc1O (stereo not drawn),11,-8,23,1,17,i,2,-6
CC1C(=O)C(C)C(c2ccc(Br)cc2)NC1c1ccc(Br)cc1 (stereo not drawn),3,25,-9,16,49,i,-4,-3
CCC1CCCCN1CCCNC(=O)Cn1cnc2sc(C)c(S(=O)(=O)N3CC(C)CC(C)C3)c2c1=O (stereo not drawn),-18,-16,.,1,-10,i,-1,5
O=C(c1ccc(Cl)cc1)c1coc2ccc(O)cc12,-15,6,.,0,36,i,-8,-10
C[C@]12c3[nH]c4ccc(Cl)cc4c3CCN1C(=O)[C@@H](CC(=O)NCCN1CCOCC1)C[C@@H]2C(=O)N1CCCCC1,2,.,-38,.,.,.,-1,0
COc1cc(N2CCCC2)c(OC)cc1/C=C1/NC(=S)NC1=O,.,?,15,-9,9,i,-123,20
CCOC(=O)C1CCN(c2cc3c(cc2NC(=O)c2ccc(OC)c(OC)c2)n(C)c(=O)n3C)CC1,-24,-10,17,-4,-11,i,3,4
O=C(CSc1nnc2ccccn12)N1CCc2ccccc21,-23,-7,-12,-14,4,i,-2,0
Cc1cccc2cc(CN(Cc3ccccc3)C(=O)N(C)C)c(=O)[nH]c12,-15,-11,-23,4,-18,.,11,3
CCOc1ncccc1C(=O)OCc1cn2cc(Cl)ccc2n1,-4,10,-95,2,8,i,3,6
O=c1c2c(ncn2C2CCCC2)n(Cc2ccccc2)c(=O)n1CCOc1ccccc1,.,2,.,5,14,i,-2,-3
N#Cc1c(NC(=O)c2cccnc2)sc2c1CCC2,-17,29,-279,22,-6,i,-15,-17
CCCCCc1cc(=O)[nH]c(=S)[nH]1,.,-3,14,7,1,i,2,3
Cc1cccc(NC(=O)CN2C(=O)N/C(=C\c3ccccc3OCc3ccc(C(=O)O)cc3)C2=O)c1,-13,10,7,6,3,.,1,3
O=C(Oc1ccccc1)c1cccc(COC(=O)c2cnccn2)c1,-17,0,-21,-2,5,i,2,0
COCCn1c(SCC(=O)Nc2ccccc2OC)nc2c(oc3ccccc32)c1=O,.,2,4,-1,-4,i,.,.
Cc1ccc2nc(-c3cccc(Br)c3)cc(C(=O)NC3CC3)c2c1,-9,2,-15,8,-2,i,-1,1
NC(=O)Nc1ccc(Cl)cc1,-17,0,0,11,-6,i,2,3
c1ccc(-c2nc(N3CCCCC3)nc3ccccc23)cc1,3,-3,.,11,9,i,7,3
COc1ccccc1-n1cnnc1SCC(=O)NC1CCS(=O)(=O)C1 (stereo not drawn),.,-6,21,-2,-5,i,3,9
COCc1cc(=O)[nH]c(-c2ccccc2)n1,-20,-4,5,9,.,.,-2,-2
COc1ccccc1CN1CCNC(=O)C1CC(=O)NCCOc1cccnc1 (stereo not drawn),.,19,8,-1,-4,i,1,7
CCCCNC(=O)C(C)N(CCN(C)C)C(=O)CCCCCN1C(=O)NC(c2ccc(Cl)cc2)C(C(=O)OCc2ccccc2)=C1C (stereo not drawn),1,.,-11,.,.,.,2,-6
C#Cc1ccc(NC(=O)C2(C)CCN2C(=O)c2ccccc2CCc2ccccc2)cc1 (stereo not drawn),-34,.,15,.,.,.,-3,-6
COCCn1c(SCC(=O)Nc2cc(C)cc(C)c2)nc2ccccc2c1=O,-7,-4,-43,0,4,i,2,-3
SMILES,UUG fidelity,eIF4H FP inh,Env fusion inh,PABP polyA inh,CSC inhib,Rce1 inh,MT1-MMP act inh,MT1-MMP act inh RFP
COc1ccc(Oc2cc(C(F)(F)F)nc(N(C)C)n2)cc1,.,-9,-5,-9,-16,i,1,0
O=C(Nc1cccc(Cl)c1N1CCOCC1)c1ccco1,-12,-13,7,7,31,.,-4,0
CCc1cccc(CC)c1NC(=S)NCc1ccc2c(c1)OCO2,-13,-8,-15,-5,15,i,-6,-4
Cc1ccc(CC(CC(=O)O)C(=O)NCC23CC4CC(CC(C4)C2)C3)cc1 (stereo not drawn),.,-10,-4,17,.,i,0,3
CCN(CC)c1ccc(NC(=O)c2ccc3c(c2)OCO3)cc1,-13,10,-99,8,43,i,0,-4
COc1cc(CC(=O)Nc2ccc(S(=O)(=O)NC3=NCCCCC3)cc2)cc(OC)c1OC,.,0,12,16,-14,i,-2,-1
CCc1nc2c(OCC(=O)c3ccc(F)cc3)cccn2c1N(C)C(=O)c1ccc(OC)cc1,-3,.,-10,.,.,.,1,-1
O=[N+]([O-])c1cccc(/C=N/NC2=NS(=O)(=O)c3ccccc32)c1,.,1,8,-12,-6,i,2,6
CCCC(=O)N=C1SC2CS(=O)(=O)CC2N1c1ccc(-c2nc3ccc(C)cc3s2)cc1 (stereo not drawn),-4,-2,-39,-1,10,i,6,4
COc1ccc(C(=O)NCC(C)C)c(OC)c1,-17,4,-28,-10,-11,i,12,8
COc1ccccc1/C=C1\SC(=S)N(CCC(=O)NC2=NCCS2)C1=O,.,36,-30,7,0,i,-3,5
CC(=O)N1c2ccccc2[C@@H](C)[C@@H]1C,-6,.,-6,.,16,.,5,6
COc1ccc(C2(C)NC(=O)N(CC(=O)NCc3ccccc3F)C2=O)cc1 (stereo not drawn),-6,1,-9,-2,-9,i,1,1
O=C1c2oc3ccccc3c(=O)c2C(c2cccc(O)c2)N1c1ccccn1 (stereo not drawn),-6,-2,-6,3,-14,i,1,-2
Cc1c(C(=O)NCC2CCCO2)oc2ccccc12 (stereo not drawn),-9,.,-35,.,0,.,-1,-4
O=S(=O)(Cc1ccccc1)N1CCN(Cc2ccc(Br)cc2)CC1,7,15,8,-7,3,i,0,-5
Cc1ccc(C(=O)N/C(=C\c2cn(S(=O)(=O)N(C)C)c3ccccc23)C(=O)N2CCCC2)cc1,31,.,12,.,-8,i,-2,-2
COc1ccc(S(=O)(=O)N2CCCCCC2)cc1C(=O)N(C)CCOc1ccccc1,-17,.,5,.,-6,i,-3,-5
Cc1ccccc1C(=O)NC(=S)Nc1ccc(S(=O)(=O)N2CCN(C)CC2)cc1,-18,5,.,2,-12,i,6,-2
Cn1c(=O)c2c(nc(N3CCOCC3)n2CCSc2ncccn2)n(C)c1=O,-1,-5,-18,-1,-15,i,8,1
Cc1c(NC(=O)CSc2nccn2C)c(=O)n(-c2ccccc2)n1C,-18,3,-2,0,-3,i,0,0
COc1cccc(/C=N\NC(=O)C2C(=O)NCC2c2ccccc2)c1O (stereo not drawn),-11,0,.,-2,22,i,-1,-4
CC(=O)c1ccc(Nc2nc(C(N)c3ccccc3Cl)cs2)cc1 (stereo not drawn),-4,.,3,.,.,.,-6,-7
COCCCn1c(SCC(N)=O)nnc1-c1ccccc1,-16,1,-49,11,3,i,2,6
Cc1cc(C)n2nc(C(=O)Nc3ccc(S(=O)(=O)N4CCCC4)cc3)nc2n1,-6,-11,5,-5,-3,i,-4,3

# Reprinted from the part before: 4 entries, then new ones.
SMILES,UUG fidelity,eIF4H FP inh,Env fusion inh,PABP polyA inh,CSC inhib,Rce1 inh,MT1-MMP act inh,MT1-MMP act inh RFP
COc1cccc(/C=N\NC(=O)C2C(=O)NCC2c2ccccc2)c1O (stereo not drawn),-11,0,.,-2,22,i,-1,-4
CC(=O)c1ccc(Nc2nc(C(N)c3ccccc3Cl)cs2)cc1 (stereo not drawn),-4,.,3,.,.,.,-6,-7
COCCCn1c(SCC(N)=O)nnc1-c1ccccc1,-16,1,-49,11,3,i,2,6
Cc1cc(C)n2nc(C(=O)Nc3ccc(S(=O)(=O)N4CCCC4)cc3)nc2n1,-6,-11,5,-5,-3,i,-4,3
Cc1ccc(CNC(=O)C2CCCN(C(=O)N(C)C)C2)cc1 (stereo not drawn),-10,8,-70,11,-1,i,3,2
CCCCN1C(=O)C(=O)N(CC(=O)NC2CCCc3ccccc32)C1=O (stereo not drawn),.,-1,10,10,13,i,1,1
COc1cccc2cc(CC(=O)c3ccccc3)c(=O)oc12,1,5,-25,8,-17,i,2,2
COc1ccc(C[C@H]2CN3C(=NC[C@H]3Cc3ccccc3)N2CCNC(=O)c2ccc(C)c(Br)c2)cc1,-16,0,.,-17,31,i,-8,-10
COc1ccccc1-c1noc(CCCC(=O)NC2CCCC2)n1,-8,-8,6,-2,.,i,2,3
COc1ccc(CC(=O)NC2=NCCS2)cc1,-17,-4,.,-9,-2,i,0,1
Cc1ccc(-c2ccc(CCC(=O)O)n2CC2CCCO2)cc1 (stereo not drawn),.,11,-6,10,.,i,0,9
O=C(CCNS(=O)(=O)c1ccc(Br)s1)NCc1ccccc1Cl,.,-3,-17,?,-10,i,-1,-1
CC(C)Oc1ccc(/C(O)=C2/C(=O)C(=O)N(CCN(C)C)C2c2cccs2)cc1 (stereo not drawn),-2,-1,8,-2,-2,i,-1,3
CCCCCOc1ccc(/C=N/NC(=O)c2nnn(-c3nonc3N)c2CN2CCCCCC2)cc1,-10,.,-14,.,29,i,-1,4
O=C(NC1CCCC1)C(c1ccco1)N(Cc1ccccc1)C(=O)c1csnn1 (stereo not drawn),-8,5,15,6,-1,i,-4,-4
COc1ccc(C2CC(=O)C(C=NCCN3CCN(C(=S)Nc4ccccc4)CC3)=C(O)C2)cc1OC (stereo not drawn),.,-5,6,-7,-7,i,0,2
O=C1CC(c2ccc(F)cc2)Sc2nc(C34CC5CC(CC(C5)C3)C4)nn21 (stereo not drawn),.,-2,-13,-3,64,i,4,5
COc1ccc(Cl)cc1NC(=S)NCc1cccs1,-21,-7,8,6,1,i,0,0
CC(=O)N1N=C(c2ccc(C)c([N+](=O)[O-])c2)OC1(C)C,.,-2,8,1,-4,i,-2,0
NC(=O)c1nsc(C(=O)N(c2cccc(F)c2)C(C(=O)NC2CCCC2)c2ccc(O)cc2)c1N (stereo not drawn),-16,-5,9,-3,-1,i,1,0
O=C(Nc1cccnc1)c1cccc(S(=O)(=O)Nc2cccc(Cl)c2)c1,-2,.,21,.,.,.,-8,-17
Cc1cccc(C)c1OCc1cc(C(=O)N2CCN(Cc3nccn3C)CC2)no1,-8,25,0,8,-5,i,-2,3
CC(C)Oc1cc(F)ccc1-c1cc(C(=O)NCC2CCCCC2)[nH]n1,-9,.,19,.,.,.,-3,-5
Cc1c(C(=O)NCc2ccc(Cl)c(Cl)c2)sc(=O)n1Cc1ccc(S(=O)(=O)N(C)C)cc1,-9,.,36,.,.,.,-4,-25
Cc1ccc(C(=O)NNc2cc(N3CCCC3)nc(N3CCCC3)n2)cc1,.,0,.,-5,7,i,.,.
CCOc1cc(-c2nc(C)c(C(C)=O)n2O)ccc1OCC(=O)Nc1ccccc1,-5,-7,2,-1,8,i,11,6
C[C@H](CO)N1C[C@H](C)[C@@H](CN(C)C(=O)Nc2ccc3c(c2)OCO3)Oc2ccc(NC(=O)Nc3ccc(C(F)(F)F)cc3)cc2C1=O,-19&-12,.,11,.,5,.,20,1
O=C(Cn1c(C(F)(F)F)nc2ccccc21)c1ccc(Br)cc1,-14,-8,.,-4,-6,i,-5,-6
CCOc1ccc(Nc2c3c(nc4ncnn24)CC(C)CC3)cc1 (stereo not drawn),-26,3,.,5,.,i,-1,-2

# The list is partial; count on the stated rates, not on these rows.
